# KCNQ2 inh = KCNQ2 potassium channel inhibitors, primary screen, cell-based, CHO-K1, FluxOR thallium flux, B-score (AID 2156); 310,000 compounds, 1.1% hits; Potassium voltage-gated channel subfamily KQT member 2 (Rattus norvegicus), O88943; B-score at 10 µM; 20 min; active compounds read low; only compounds with negative scores are shown here; some inactives read as strong as hits;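 active = fluorescence ratio B-score at most minus 3 library SDs, with starting brightness B-score within 2 library SDs, cut at about -5.5 in these data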
# Target sequence (O88943 whole entry, looked up): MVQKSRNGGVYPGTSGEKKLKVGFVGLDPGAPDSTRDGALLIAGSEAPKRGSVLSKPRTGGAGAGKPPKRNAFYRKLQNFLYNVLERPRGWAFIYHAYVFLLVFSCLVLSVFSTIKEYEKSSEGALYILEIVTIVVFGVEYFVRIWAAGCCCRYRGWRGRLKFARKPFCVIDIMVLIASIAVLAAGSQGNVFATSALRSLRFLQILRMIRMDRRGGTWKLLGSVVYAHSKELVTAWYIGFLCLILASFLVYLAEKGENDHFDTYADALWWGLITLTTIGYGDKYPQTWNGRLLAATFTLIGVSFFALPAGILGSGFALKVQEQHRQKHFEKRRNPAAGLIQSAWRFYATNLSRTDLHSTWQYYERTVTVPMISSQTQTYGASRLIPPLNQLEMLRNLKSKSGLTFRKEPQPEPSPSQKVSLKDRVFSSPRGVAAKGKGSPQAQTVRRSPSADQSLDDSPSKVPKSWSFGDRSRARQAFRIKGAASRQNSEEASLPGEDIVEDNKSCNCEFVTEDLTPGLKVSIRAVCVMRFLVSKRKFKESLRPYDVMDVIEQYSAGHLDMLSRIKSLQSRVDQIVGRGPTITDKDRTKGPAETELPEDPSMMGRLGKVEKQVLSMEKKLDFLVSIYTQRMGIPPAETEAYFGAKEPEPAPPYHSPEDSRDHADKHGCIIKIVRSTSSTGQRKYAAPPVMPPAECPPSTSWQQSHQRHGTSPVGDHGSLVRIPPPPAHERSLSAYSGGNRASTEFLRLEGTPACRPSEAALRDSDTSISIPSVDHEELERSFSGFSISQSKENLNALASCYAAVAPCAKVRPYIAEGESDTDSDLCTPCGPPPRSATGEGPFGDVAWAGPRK
# KCNQ2 inh baseline = second read-out of KCNQ2 inh, no call of its own (marks repeat the call); B-score; measured here: initial fluorescence intensity artifact check;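 brightness before thallium and not channel activity; 0 = typical well and far values either way flag optical interference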
# The depositor's hits bear a star; i = inactive.
no.	compound	KCNQ2 inh	KCNQ2 inh baseline
1	COc1ccc(C)cc1NC(=O)Cn1cnc2sc(C)c(S(=O)(=O)N3CCOCC3)c2c1=O	i	-0.33
2	CC1(C)CC(=O)C2=C(C1)N(CCN1CCOCC1)C1=C(C(=O)CC(C)(C)C1)C2c1ccc(Cl)cc1	i	0.87
3	COc1ccc(-c2cc(C(=O)Oc3ccc([N+](=O)[O-])cc3)c3ccccc3n2)cc1	i	1.4
4	COC(=O)CSc1nnc(-c2cccs2)n1-c1ccc(Cl)cc1	i	-1.2
5	COc1ccccc1CN=c1c([N+](=O)[O-])nn(-c2ccc3c(c2)OCCO3)n1O	i	0.12
6	Cc1ccc(/C=C/C(=O)NC2=NCCS2)cc1	i	1.5
7	O=C(O)c1cccc(S(=O)(=O)N2CCN(C(c3ccccc3)c3ccccc3)CC2)c1	i	0.76
8	CCC/C=C1/CCCOC(C(=O)NCc2cc(C)n(C)n2)(C(F)(F)F)C1 (stereo not given)	i	-0.12
9	CC1(C)CC(=O)C(C=Nc2ccc(NC3=C(C#N)C(=O)CC(C)(C)C3)cc2)=C(O)C1	i	-1.5
10	COc1ccc(-c2nc(NC(=O)c3ccccc3)sc2-c2ccc([N+](=O)[O-])cc2)cc1	i	-1
11	[O-]/C(=C(\C(=S)Nc1ccc(Cl)cc1)[n+]1ccccc1)c1ccc(OC(F)F)cc1	i	0.42
12	CCC(C(=O)Nc1cc(C(=O)Nc2cc(C)ccn2)ccc1Cl)c1ccccc1 (stereo not given)	i	2
13	Cn1c(=O)c(C(=O)COC(=O)c2cc(-c3ccco3)nc3ccccc23)c(N)n(Cc2ccccc2)c1=O	i	-0.19
14	CCc1ccc(CNC(=O)Cn2nc(-c3ccccc3)ccc2=O)cc1	i	0.24
15	O=C(N/N=C/c1cc([N+](=O)[O-])ccc1Cl)c1cc(-c2ccccc2)nc2ccccc12	i	0.24
16	Cc1nc2ncnn2c(N2CCN(C(c3ccccc3)c3ccccc3)CC2)c1C	i	0.55
17	O=C(NC(Cc1ccccc1)C(=O)O)C1CCCCC1 (stereo not given)	i	0.48
18	CC(=O)Nc1ccc(S(=O)(=O)N2CCN(C(=O)c3ncoc3-c3ccccc3C)CC2)cc1	i	1.1
19	CC(C)CCN1C(=O)C2(OCCCO2)c2cc(Cl)ccc21	i	1
20	O=C(NC1CCCC1)C1CCCN(S(=O)(=O)c2cnc[nH]2)C1 (stereo not given)	i	-1.5
21	Cc1ccc2cccc(NS(=O)(=O)c3ccccc3)c2n1	i	1.2
22	O=C1CC(c2ccc(Br)cc2)NC(c2ccc(Br)cc2)C1c1ccccc1 (stereo not given)	-5.7*	-0.07*
23	CCOc1ccc(CN(C)CC(=O)Nc2ccc([N+](=O)[O-])cc2Cl)cc1	i	-0.82
24	CCc1ccccc1NC(=O)C1CC(c2ccc(OC)cc2)=NO1 (stereo not given)	i	-0.98
25	COC(=O)c1c(-c2cccnc2)csc1NC(=O)c1cc(C)on1	i	-2.8
26	COc1cc(SC)ccc1C(=O)OCC(=O)NC1CCCC1	i	0.47
27	CN(C)CC(O)CN1C(=O)N(CN2C(=O)N(CC(O)CN(C)C)C(=O)C2(C)C)C(C)(C)C1=O (stereo not given)	i	0.02
28	COc1ccc(NC(=O)CN2CCN(CC(=O)Nc3ccccc3OC)CC2)c(OC)c1	i	-0.92
29	CC(=O)c1cccc(N(CC(=O)N2CCCCC2)S(C)(=O)=O)c1	i	-0.75
30	CC(Sc1nc(N2CCOCC2)c2c(c1C#N)CC(C)(C)OC2)C(=O)Nc1ccccc1 (stereo not given)	i	-0.51
31	COc1cc(/C=N/Nc2nc3ccccc3[nH]2)cc(OC)c1O	i	-1.2
32	O=C(NCCc1nc2ccccc2[nH]1)/C(=C/c1ccc2c(c1)OCO2)NC(=O)c1ccc(Cl)cc1Cl	i	-0.01
33	Cc1c(C(=O)N(C)C)c2cc(Cl)ccc2n1O	i	3.4
34	COc1cc(Cl)c(C)cc1NC(=O)COC(=O)CCc1nc2ccccc2c(=O)[nH]1	i	0.24
35	CSc1ncc(Cl)c(C(=O)NCc2cccnc2)n1	i	-0.21
36	CCOc1ccc(NC(=O)Nc2nnc(CC(=O)NCc3ccccc3)s2)cc1	i	0.35
37	O=C(CSc1ccccn1)Nc1nc2ccc(Br)cc2s1	i	-0.93
38	CSC1=N/C(=C\c2cccc(Cl)c2)C(=O)N1N(C)C	i	0.14
39	O=C(O)CCC(NC(=O)c1ccc(Cl)cc1)C(=O)O (stereo not given)	i	-0.41
40	CCN(CC)C(=O)CSc1nc(-c2ccccc2)cc(=O)[nH]1	i	0.82
41	CCOc1ccccc1CN1CCN(C2CCOCC2)CC1CCO (stereo not given)	i	-1.4
42	Cn1c(N)c(C(=O)COC(=O)c2cc(-c3ccccc3)nc3ccccc23)c(=O)n(C)c1=O	i	-0.1
43	COC(=O)C(Cc1ccc(O)cc1)NC(=O)c1ccc2c(c1)OCCO2 (stereo not given)	i	-1.5
44	Cc1ccc(NS(=O)(=O)c2cccs2)c(C)c1	i	-0.22
45	FC(F)(F)c1cc(-c2cccs2)nc(-n2cc(Br)cn2)n1	i	1.1
46	Cc1cc2nc(SCC(=O)N(C)C)c3c(c2cc1C)CCCC3	i	1.8
47	O=[N+]([O-])c1cccc(/C=N/n2c(COc3ccccc3)n[nH]c2=S)c1	i	0.83
48	C=CCOC(=O)C1=C(C)NC(SC)=C(C#N)C1c1ccc(OCC)cc1 (stereo not given)	i	1.1
49	CC(C)N(Cc1ccccc1)C(=O)COC(=O)C1CCN(S(=O)(=O)c2ccc3c(c2)OCCO3)CC1	i	-0.02
50	CCOc1c2ccc(C(=O)NCc3ccc(OC)cc3)cc2nn1CCOC	i	0.38
51	CCOC(=O)CN1C(=O)S/C(=C/c2ccc3c(c2)n(C)c(=O)n3C)C1=O	i	-0.21
52	C=C(C)C(=O)OCCCCCCOc1ccc(C(=O)O)cc1	i	-0.03
53	O=C(CCS(=O)(=O)c1ccc(Br)cc1)N1CCN(c2ccccc2Cl)CC1	i	-1.2
54	CCC1CCCCN1c1cc(C)nc2cc(-c3cccc(C)c3)nn12 (stereo not given)	i	0.49
55	O=C(NCC1CCCO1)c1cccc(Oc2ccc([N+](=O)[O-])cc2)c1 (stereo not given)	i	-0.04
56	CCOC(=O)c1c(N/N=C/c2cccnc2)n[nH]c1C	i	0.86
57	COCCCn1c(C)nnc1SCc1ccc(C(C)(C)C)cc1	i	0.31
58	CNc1oc(/C=C/c2ccccc2)nc1C#N	i	3
59	CC(C)[C@H](NC(=O)Nc1ccc2c(c1)OCCO2)C(=O)O	i	1.8
60	CN(C[C@H](Cc1ccccc1)N(C[C@@H](Cc1cccc2ccccc12)N(CCc1ccccc1)N=O)N=O)N=O	i	0.54

# Next results:
no.	compound	KCNQ2 inh	KCNQ2 inh baseline
61	COc1ccc(-c2cnn3c4c(c(C)nc23)CCN4C2CCCC2)cc1OC	i	1.8
62	CCN(C(=O)CCS(=O)(=O)c1cc2c(cc1Cl)NC(=O)CO2)c1ccccc1	i	-0.28
63	COc1ccc(NC(=O)NC23CC4CC(CC(C4)C2)C3)cc1OC	i	-2
64	C#CCOCCOCCOCCNc1nc(N2CCN(C(=O)[C@H](Cc3cc4ccccc4[nH]3)n3cc([C@@H](N)CC(C)C)nn3)CC2)nc(N2CCN(C(=O)[C@H](Cc3cc4ccccc4[nH]3)n3cc([C@@H](N)CC(C)C)nn3)CC2)n1	i	2.8
65	Cc1cccc(NC(=O)c2cc(N3C(=O)CCC3=O)ccc2Cl)n1	i	0.07
66	CCOC(=O)c1cccc(NC(=O)CSc2nnc(C)n2CC2CCCO2)c1 (stereo not given)	i	0.71
67	O=C(NCCCn1ccnc1)C(=O)NCC1OCCCN1S(=O)(=O)c1ccccc1 (stereo not given)	i	0.61
68	Cn1c(=O)c2[nH]c(CN(Cc3ccccc3)Cc3ccccc3)nc2n(C)c1=O	i	0.06
69	O=c1cc(-c2ccccc2)nc(N2CCN(Cc3ccccc3)CC2)[nH]1	i	-1.6
70	O=C(OCc1nnc(-c2ccc(Cl)cc2)o1)c1ccc(=O)n(Cc2ccccc2)n1	i	-0.02
71	Cc1ccc(C)c(Cn2nnc3c(=O)[nH]c(C4CCCN(C(=O)CC(C)C)C4)nc32)c1 (stereo not given)	i	0.84
72	Cc1c(O)ccc(/C(Cc2ccc3ccccc3n2)=N\N)c1O	i	-1.4
73	Clc1ccccc1-c1nc(-c2ccc(Br)o2)no1	i	1
74	O=C(Cn1c(=O)c2cccn2c2ccccc21)NCc1cccc(F)c1	i	1.6
75	O=C(CSc1ncn[nH]1)Nc1ccc2c(c1)OCCO2	i	2.1
76	O=C(Nc1ncc2c(n1)CC(c1ccco1)CC2=O)c1ccc(Cl)cc1 (stereo not given)	i	0.09
77	CCOc1cc(C(=O)NCc2ccc(-c3nc4ccccc4o3)cc2)cc(OCC)c1OCC	i	-0.11
78	CCN(Cc1ccccc1)C(=O)CCS(=O)(=O)c1cc2c(cc1Cl)NC(=O)CO2	i	0.74
79	O=C(OCc1ccccc1)c1cccc(-c2nnc(-c3ccccc3)o2)c1	-6.3*	0.84*
80	CC(C)CC(NC(N)=O)C(=O)OCC(=O)NC(=O)NC1CCCC1 (stereo not given)	i	1.4

# Nos. 1 to 4 from above:
no.	compound	KCNQ2 inh	KCNQ2 inh baseline
1	COc1ccc(C)cc1NC(=O)Cn1cnc2sc(C)c(S(=O)(=O)N3CCOCC3)c2c1=O	i	-0.33
2	CC1(C)CC(=O)C2=C(C1)N(CCN1CCOCC1)C1=C(C(=O)CC(C)(C)C1)C2c1ccc(Cl)cc1	i	0.87
3	COc1ccc(-c2cc(C(=O)Oc3ccc([N+](=O)[O-])cc3)c3ccccc3n2)cc1	i	1.4
4	COC(=O)CSc1nnc(-c2cccs2)n1-c1ccc(Cl)cc1	i	-1.2

# (listing goes on)
no.	compound	KCNQ2 inh	KCNQ2 inh baseline
81	COC(=O)C(C(=O)OC)C(C)C(C(=O)OC)C(=O)OC	i	0.3
82	CCc1nnc(NC(=O)c2ccc(-c3ccccc3Cl)o2)s1	i	0.01
83	O=C(CNC(=O)c1cccs1)NCC(=O)OCC(=O)c1ccccc1	i	-1.6
84	CCOc1cc(C)c(Cl)cc1S(=O)(=O)n1ccnc1	i	-0.71
85	Cc1c(/C=N/Nc2ccc([N+](=O)[O-])cn2)c2ccccc2n1Cc1ccccc1	i	-0.71
86	COc1cc([N+](=O)[O-])ccc1NC(=O)NNC(=O)C(C)Oc1ccc(F)cc1F (stereo not given)	i	-0.04
87	COc1ccc(NC(=O)c2c(SC)nsc2SC)cc1	i	0.06
88	Nc1nc2c(c(=O)[nH]1)CN(Cc1ccccc1)CC2	i	0.73
89	CCOc1ccc(Oc2ccc(S(=O)(=O)N3CCOCC3)cc2NC(=O)CCNC(C)=O)cc1	i	-0.88
90	Cc1sc2nc(SCC(=O)NCc3ccco3)n(C)c(=O)c2c1C	i	-1.4
91	CCN(CC)CCCNC(=S)N(Cc1ccco1)Cc1cc2cc3c(cc2[nH]c1=O)OCCO3	i	1.8
92	CN(Cc1ccc(C(F)(F)F)cc1)C(=O)c1ccc2ccccc2n1	i	-0.49
93	O=C(CSc1nnc(-c2ccc(O)cc2)n1Cc1ccco1)c1ccccc1	i	0.09
94	CC(=O)Nc1ccc(Sc2ccccc2C(=O)O)c(C(=O)O)c1	i	-1
95	Cc1cc(C(=O)NCC(=O)OCC(=O)N2CCCCCC2)ccc1[N+](=O)[O-]	i	-0.37
96	CCOc1ccccc1C(=O)OCC(=O)Nc1cc(Cl)ccc1Oc1ccccc1	i	-0.16
97	Cn1c(SCC(=O)O)nnc1-c1cccc(NC(=O)c2cccc3ccccc23)c1	i	-0.53
98	COc1ccc(S(=O)(=O)N2CCCCCC2)cc1C(=O)N(C)CC(=O)Nc1ccccc1Br	i	-2.3
99	O=C(CCn1cccn1)Nc1ccc2c(c1)OCCO2	i	0.39
100	Cc1cc(C(=O)Nc2cccc(C)c2C)c2ccccc2n1	-5.8*	-2*

# 3 entries already listed, sorted by count of non-hydrogen atoms, ascending:
no.	compound	KCNQ2 inh	KCNQ2 inh baseline
88	Nc1nc2c(c(=O)[nH]1)CN(Cc1ccccc1)CC2	i	0.73
83	O=C(CNC(=O)c1cccs1)NCC(=O)OCC(=O)c1ccccc1	i	-1.6
95	Cc1cc(C(=O)NCC(=O)OCC(=O)N2CCCCCC2)ccc1[N+](=O)[O-]	i	-0.37

# Later entries
no.	compound	KCNQ2 inh	KCNQ2 inh baseline
101	Cc1cccc(NC(=S)NNC(=S)NCc2ccccc2)c1	i	-0.48
102	Cc1cc(SCC(=O)c2cccc([N+](=O)[O-])c2)nc(=O)[nH]1	i	-0.85
103	COc1ccc(C(=O)N(Cc2ccccc2)c2cccc(C)c2)c(OC)c1OC	i	-1.6
104	CN1C(C(=O)NCc2cccc(Br)c2)CC2Cn3c(nc4cc(Cl)c(Cl)cc43)C21 (stereo not given)	i	1.6
105	CN(CCC1CCOCC1)C(=O)C1CCC(=O)N(CCc2ccc(Cl)cc2)C1 (stereo not given)	i	-0.02
106	COc1ccc(C(=O)C(C)N(C(=O)c2ccc(Cl)cc2Cl)N2C(=O)C3C4C=CC(C4)C3C2=O)cc1 (stereo not given)	i	-0.71
107	COc1ccc(NC(=S)N(CCCN2CCCC2)Cc2cccs2)cc1	i	-1.6
108	O=C(CN(Cc1ccccc1)S(=O)(=O)c1ccccc1)N/N=C/c1ccc2c(c1)OCO2	i	0.02
109	O=C(NC1CCCCC1)Oc1cccc2ccccc12	i	-0.54
110	O=[N+]([O-])c1ccccc1/C=C\C=N\N1CCN(c2ccccc2)CC1	i	0.47
111	Oc1ccccc1/C=N/n1c(-c2cccs2)n[nH]c1=S	i	0.3
112	Cc1ccc(-c2nn(C)c(=O)c3ccccc23)cc1CNC(=O)CSc1nc2ccccc2o1	i	0.02
113	Oc1ccc(/C=N/NC(=S)Nc2cccnc2)c(O)c1	i	0.19
114	COC(=O)CN(C#N)c1nc(OC)nc(N(C)C)n1	i	3.2
115	COc1ccc(S(=O)(=O)N2CCCCC2)cc1NC(=O)CN1CCN(C(C)=O)CC1	i	-0.25

# Assay outcomes as filed in PubChem.

# A portion of the library; count on the stated rates, not on these rows.
